HNF4A DNA FP = change in binding of human HNF4 alpha to DNA; P41235; HNF4a-FITC DNA binding, fluorescence polarization, 1 h; hit rate 0.3% among 360,000; activity change, % at 10 µM; in the data active means activity change above about 30%, passing the limit was not always enough;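 further: controls were the assay level and a saturating level of protein; the project sought stronger binding though the title names inhibitors; some compounds called inactive have numbers as strong as hits; positive values seem to mean higher polarization but the record does not say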
Target sequence (P41235 whole entry, looked up): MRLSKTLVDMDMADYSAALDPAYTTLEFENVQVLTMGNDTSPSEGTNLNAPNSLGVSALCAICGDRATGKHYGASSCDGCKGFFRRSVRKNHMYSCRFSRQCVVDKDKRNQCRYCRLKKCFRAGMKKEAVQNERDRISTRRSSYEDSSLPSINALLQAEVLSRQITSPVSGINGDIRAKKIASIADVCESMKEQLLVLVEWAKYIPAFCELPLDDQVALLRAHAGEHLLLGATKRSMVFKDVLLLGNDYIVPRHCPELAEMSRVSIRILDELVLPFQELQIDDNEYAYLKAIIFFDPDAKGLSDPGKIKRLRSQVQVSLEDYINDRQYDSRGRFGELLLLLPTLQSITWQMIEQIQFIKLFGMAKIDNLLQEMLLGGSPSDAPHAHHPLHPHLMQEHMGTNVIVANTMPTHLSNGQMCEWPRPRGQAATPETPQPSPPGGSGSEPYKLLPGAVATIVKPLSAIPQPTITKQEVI
FGF22 binding = FGF22 (human) thermal shift binding | Q9HCT0 | recombinant FGF22 thermal shift, SYPRO orange fluorescence; percent of sucrose octasulfate shift, DMSO zero | calls only at 9.99 µM | hit rate 1.5% among 340,000;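 active means melting point raised past a set limit in the mean and every replicate; inconclusive means no clear call; three in four hits are not shown here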
Target sequence (Q9HCT0 whole entry, looked up): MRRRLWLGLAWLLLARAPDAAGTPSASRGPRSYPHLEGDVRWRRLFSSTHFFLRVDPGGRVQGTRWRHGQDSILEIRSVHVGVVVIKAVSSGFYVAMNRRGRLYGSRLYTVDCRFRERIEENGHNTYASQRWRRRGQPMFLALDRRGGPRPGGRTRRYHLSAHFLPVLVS
RanGTP-Imp inh = inhibitors of RanGTP-importin-beta interaction, primary screen, biochemical, FRET, CFP-Ran, YFP-importin-beta, homogeneous; inhibition, % (concentration not given with the values); cell-free CFP-Ran/YFP-importin-beta FRET ratio; hit rate 1.1% among 300,000;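 active means most replicates above 15%; inconclusive means exactly half above 15%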;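 further: 0% = DMSO wells and 100% = Ran loaded with GDP instead of GTP; wells of about 40 µL received 100 nL stock; the first replicate is given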
AF4-AF9 inh = inhibitors of human MLL-AF4/AF9 interaction. inhibition, % at 10 µM. hit rate 0.47% among 350,000. AlphaScreen, biotin-AF4 peptide binding to FLAG-AF9. P42568;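 active means every replicate reaching a set inhibition limit, whatever the replicate mean, cut at about 25% in these data; inconclusive means mean inhibition reaches that limit but some replicates miss it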;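 further: 0% = plate neutral control median and 100% = total signal loss; the record names both 10 and 1 µM as test concentration; the first replicate is given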
UCH37 inh = blocks the human deubiquitinase UCH37; Q9Y5K5; AID 588478; inhibition, % (no concentration beside the values); purified proteasome/UCH37, Ub-AMC cleavage fluorescence; hit rate 0.33% among 330,000;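 active means mean of two replicates above 20%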;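 further: 0% = compound-free wells with enzyme and 100% = wells lacking proteasome; stock transfer was 100 nL into about 20 µL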
Target sequence (Q9Y5K5 whole entry, looked up): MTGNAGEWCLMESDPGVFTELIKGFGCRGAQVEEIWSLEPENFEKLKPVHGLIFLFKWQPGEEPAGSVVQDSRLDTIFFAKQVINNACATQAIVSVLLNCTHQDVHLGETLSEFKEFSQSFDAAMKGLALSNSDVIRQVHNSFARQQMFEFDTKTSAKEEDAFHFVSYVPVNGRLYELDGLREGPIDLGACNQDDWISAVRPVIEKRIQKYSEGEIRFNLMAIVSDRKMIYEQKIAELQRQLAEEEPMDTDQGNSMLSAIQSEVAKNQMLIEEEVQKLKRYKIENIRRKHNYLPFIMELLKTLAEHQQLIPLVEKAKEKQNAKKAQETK
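Test system – human UCH37 enzyme supplied as purified proteasome complex · Incubation – 30 min preincubation with enzyme, 25 min cleavage at room temperature · Detection – AMC fluorescence from Ub-AMC cleavage, excitation 355 nm, emission 460 nm · Benchmarks – no-proteasome wells (full inhibition) and compound-free wells (no inhibition)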
Ecoli growth = blocks Escherichia coli growth | OD600, 23 h; active compounds read low | OD600 absorbance (test concentration not listed) | hit rate 0.21% among 330,000 | AID 1053175;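 active means OD600 absorbance below the run mean of sample wells minus 3.6 SD, in any replicate, cut at about 0.56 in these data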;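 further: stock transfer was 300 nL into about 60 µL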
Vif A3G = inhibitors of Vif binding to APOBEC3G peptide, primary screen, biochemical, TR-FRET, GST-Vif 1-94, biotin-A3G peptide, dose response retest (AID 1117319) | hit rate 0.57% among 260,000 | inhibition, %; hits with a dose series show IC50 in µM | TR-FRET GST-Vif / biotin-A3G peptide binding; higher % means a stronger effect; test concentration not given here; strong numbers were not always called active;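 active means above the screen mean plus three standard deviations and confirmed in dose response; inconclusive means results disagree or hit not tested in dose response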;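 further: Vif residues 1-94 fused to GST binding biotinylated APOBEC3G peptide 110-148; 0% = full assay without inhibitor and 100% = GST in place of GST-Vif; retest series ran down from 100 µM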
The depositor's hits bear a star; i = inactive; u = inconclusive; x = no result given; & = joins results of further samples.

#	compound	HNF4A DNA FP	FGF22 binding	RanGTP-Imp inh	AF4-AF9 inh	UCH37 inh	Ecoli growth	Vif A3G
1	CNC(=O)CSc1nnc(SCCC(=O)O)s1	1.6	x	0.2	x	3.9	0.74	1%
2	CCOC(=O)c1nc2ccccc2s1	-1.6	x	-9.5	x	4.3	0.72	0%
3	O=C(Cn1cnc2c(cnn2-c2ccc(F)cc2)c1=O)NCc1ccco1	-0.8	x	1.8	x	-6.0	0.76	10%
4	CC1CN(S(=O)(=O)c2ccc(C(=O)Nc3nnc(-c4ccccn4)o3)cc2)CC(C)O1 (stereo unspecified)	-1.2	i	3.3	-2.6	5.5	0.71	-1%
5	CC(C)(C)c1ccc(C(=O)NC2CCS(=O)(=O)C2)cc1 (stereo unspecified)	0.6	i	0.9	-1.8	4.3	0.7	3%
6	O=C(CNC(c1ccccc1)c1ccccc1)NCc1ccccc1Cl	3.9	i	-1.2	6.8	5.0	0.68	-4%
7	COc1cccc(C(=O)CN2CCC(NC(=O)NC3CCCCC3)CC2)c1	-0.9	x	0.9	x	1.4	0.72	1%
8	O=C(Nc1ccc(O)c2c(=O)cc(-c3ccccc3Cl)oc12)c1ccccc1Cl	-4.5	i	0.2	1.4	2.9	0.69	11%
9	CC(C)Nc1nc(NC(C)(C)C)nc(Oc2ccc(=O)n(-c3ccccc3)n2)n1	-2.0	x	-1.6	x	-0.1	0.7	-9%
10	CC(C)(C)c1ccc(C(=O)Nc2ccc(F)cc2)s1	-1.4	i	-1.6	-0.5	0.3	0.66	x
11	CCn1c(=O)c2cc(C(=O)Nc3cccc(C(C)=O)c3)sc2c2ccccc21	2.6	i	-0.3	22	-217	0.73	x
12	CC(OC(=O)C1CCC(=O)N1)C(=O)Nc1cc(Cl)cc(Cl)c1 (stereo unspecified)	2.4	x	1.2	x	4.4	0.69	4%
13	Cc1ccc(/C=C/C(=O)Nc2cccc3ncccc23)o1	-3.7	i	17*	-6.7	11	0.65	14%
14	COc1ccccc1CCC(=O)Nc1ccc2c(c1)CN(CCCn1cccn1)CC2	1.0	i	2.7	-3.1	-0.1	0.7	-4%
15	CC(NS(=O)(=O)c1ccccc1)C(=O)Nc1ccc2c(c1)OCCO2 (stereo unspecified)	1.8	i	-1.2	-3.1	0.6	0.7	0%

Sorted by molecular weight (ascending): three of the compounds above.
#	compound	HNF4A DNA FP	FGF22 binding	RanGTP-Imp inh	AF4-AF9 inh	UCH37 inh	Ecoli growth	Vif A3G
2	CCOC(=O)c1nc2ccccc2s1	-1.6	x	-9.5	x	4.3	0.72	0%
13	Cc1ccc(/C=C/C(=O)Nc2cccc3ncccc23)o1	-3.7	i	17*	-6.7	11	0.65	14%
6	O=C(CNC(c1ccccc1)c1ccccc1)NCc1ccccc1Cl	3.9	i	-1.2	6.8	5.0	0.68	-4%

Next section.
#	compound	HNF4A DNA FP	FGF22 binding	RanGTP-Imp inh	AF4-AF9 inh	UCH37 inh	Ecoli growth	Vif A3G
16	COc1cccc(NC(=O)c2sc(Cl)nc2C)c1	0.8	i	3.6	1.1	5.6	0.69	x
17	COc1ccc([C@H]2C[C@@H](O)[C@H](n3cc(-c4ccc(F)cc4)nn3)CN2C(=O)C2CCCCC2)cc1	0.1	i	x	1.3	x	x	-8%
18	CCc1nnc(NC(=O)[C@@H](NS(=O)(=O)c2ccc3c(c2)OCCO3)C(C)C)s1	6.8	i	x	-8.7	2.3	0.67	-3%
19	CCC(C)(C)n1nnnc1C(c1ccc2ncccc2c1)N1CCCCCC1 (stereo unspecified)	-1.7	x	-3.1	x	8.8	0.69	3%
20	COc1ccc(-c2noc(CCC(=O)N3CCN(c4ccccc4C(F)(F)F)CC3)n2)cc1	3.5	i	x	-2.6	0.2	0.7	x
21	CC(C)Nc1nnc(SC(C)C(=O)Nc2ccc(N3CCOCC3)cc2)s1 (stereo unspecified)	1.6	i	x	-0.1	x	x	x
22	CC1CCc2c(sc3nc(CSc4ncn[nH]4)[nH]c(=O)c23)C1 (stereo unspecified)	2.3	x	-2.5	x	2.5	0.68	-2%
23	O=[N+]([O-])c1cccc(-c2ccc(/C=N/NC(=S)Nc3ccccc3)o2)c1	-2.0	x	-2.4	x	x	x	4%
24	Cc1ccc(-c2nnc3ccc(SC(C)C(=O)O)nn23)cc1 (stereo unspecified)	-1.5	i	0.7	3.4	-22	0.75	4%
25	CC(C)C[C@@H](CN1CCC[C@@H]1CN1C(=O)C(=O)NC[C@@H]1Cc1ccccc1)N1C[C@H](Cc2ccccc2)N(CC2CCCCCC2)C(=O)C1=O	-1.0	i	x	-13	x	x	x
26	Cc1cc(NC(=O)CSc2nc3c(C)cccc3cc2C#N)no1	4.2	i	1.7	-12	-10	0.65	x
27	CCCSc1nc(N)cc(=O)[nH]1	0.0	x	2.5	x	3.1	0.67	1%
28	CCOC(=O)c1c(C)[nH]c(C(=O)COC(=O)CNC(=O)c2ccc(Br)cc2)c1C	-5.0	i	-2.8	-4.1	4.2	0.71	x
29	COC(=O)c1cnc(N2CCCN(S(=O)(=O)c3ccccc3)CC2)nc1C(F)(F)F	0.7	i	-5.8	-6.6	-4.6	0.67	-1%
30	CCNC(=O)NS(=O)(=O)c1cnccc1Nc1cccc(Cl)c1	2.6	x	-3.6	x	0.6	0.69	x
31	Cc1ccc(CN(CC(=O)NC2CCCCC2)C(=O)c2csnn2)cc1	3.9	i	3.8	12	0.1	0.61	x
32	Cc1ccc(NC(=O)C2(C)CCN2C(=O)Cc2ccc(C(C)(C)C)cc2)cc1C (stereo unspecified)	23	i	x	1.0	x	x	x
33	CCN1C(=O)/C(=C2\SC(=S)N(NC(=O)c3cccnc3)C2=O)c2ccccc21	2.0	i	-2.9	2.6	2.3	0.7	4%
34	Cc1cc(NC(=O)CCC(=O)N(Cc2ccccc2)C(C(=O)NC2CCCC2)c2ccco2)no1 (stereo unspecified)	2.5	i	4.4	0.2	1.1	0.71	-3%
35	O=C(C1CC(=O)N(c2ccc3c(c2)OCCO3)C1)N1CCCC(C(F)(F)F)C1 (stereo unspecified)	0.1	i	-1.1	7.3	2.2	0.68	-1%
36	Cc1cccc(N2CCN(C(=O)c3ccc(Cl)c(S(=O)(=O)NCc4ccco4)c3)CC2)c1C	2.0	x	4.5	x	1.4	0.69	3%&0%
37	CCC(NC(=O)Nc1nccs1)(C(F)(F)F)C(F)(F)F	1.0	x	0.7	x	0.0	0.73	-3%
38	CN(/N=C/c1cc(Cl)ccc1O)C1=NS(=O)(=O)c2ccccc21	-1.9	i	1.3	-1.7	x	x	-6%
39	O=S(=O)(c1ccc(Br)cc1)N1CCCC1c1nc2ccccc2s1 (stereo unspecified)	-3.4	x	-2.4	x	2.2	0.69	2%
40	O=C(NCCC1=CCCCC1)C1CCN(C(=O)Cc2ccccc2)CC1	-1.7	i	-6.0	1.8	1.5	0.72	8%
41	CCOc1ccc(NC(=O)CCCCCN2C(=O)[C@@H]3Cc4ccccc4CN3C2=O)cc1	-0.9	i	-1.4	u	1.1	0.64	x
42	Cc1cccc(N2CCN(c3nnnn3-c3ccccc3)CC2C)c1 (stereo unspecified)	3.0	x	4.2	x	1.9	0.74	3%
43	CN(CC(=O)Nc1ccccc1Br)C(=O)c1cccc(S(=O)(=O)NCc2ccccc2)c1	0.4	x	u	0.9	6.2	0.67	x
44	O=[N+]([O-])c1cccc(-c2ccc(CN3CCN(c4ccccc4)CC3)o2)c1	-2.8	i	2.7	-1.4	2.9	0.61	x
45	CCOC(=O)N1CCN(Cc2cn[nH]c2-c2ccc(-c3ccccc3)cc2)CC1	2.8	i	0.2	-0.5	1.3	0.67	x
46	C#CCOCCOCCOCCNc1nc(N2CCN(C(=O)CCCCCCCCCCNC(=O)[C@@H]([C@H](C)O)n3cc(C)nn3)CC2)nc(N2CCN(C(=O)CCCCCCCCCCNC(=O)[C@@H]([C@H](C)O)n3cc(C)nn3)CC2)n1	0.5	i	x	3.0	-0.3	x	x
47	Cc1c(F)cccc1NS(=O)(=O)c1ccc2c(c1)c(C)cc(=O)n2C	1.3	i	-2.5	-15	4.4	0.69	-4%
48	O=C(Nc1cccc(S(=O)(=O)c2cccc(NC(=O)c3ccco3)c2)c1)c1ccco1	-1.2	i	5.5	-2.9	-0.3	0.73	3%
49	Cc1cccc(C(=O)NCc2nnc(SCC(=O)N3CCN(c4ccccc4)CC3)n2C)c1	0.2	x	0.2	x	1.7	0.68	x
50	C=CCn1c(SCC(N)=O)nnc1-c1cnccn1	1.3	i	-2.5	-6.2	3.2	0.65	-1%
51	Cc1ccc(OCCC(=O)OCC(=O)NC(=O)NC2CCCCC2)cc1	2.3	i	x	-0.3	2.1	0.63	1%
52	CN(C)S(=O)(=O)c1cccc(NC(=O)c2ccc(Sc3nncn3C)c([N+](=O)[O-])c2)c1	-2.5	i	1.7	1.4	3.9	0.67	-1%
53	COc1ccc(CCN(C)C2CC(=O)N(c3ccccc3)C2=O)cc1OC (stereo unspecified)	-0.7	i	1.9	-0.7	1.3	0.69	x
54	O=C(CSc1nnc(CNC(=O)c2ccco2)o1)Nc1cccc(F)c1	-2.6	i	7.8	1.8	-0.6	0.66	x
55	COc1cccc(-n2c(C)nnc2SCC#N)c1	1.8	x	6.6	x	5.0	0.61	2%
56	O=C(CN(Cc1ccccc1F)S(=O)(=O)c1ccc(Cl)cc1)NCCC1=CCCCC1	6.7	x	1.8	x	3.7	0.71	5%
57	C/C(=N/NC(=O)c1nnn(-c2nonc2N)c1COc1ccccc1)c1ccccc1Cl	0.8	i	-1.9	-3.7	x	x	-2%
58	O=C(NCC(=O)N(c1ccc(F)cc1)C(C(=O)NC1CCCC1)c1cccnc1)c1ccco1 (stereo unspecified)	-5.3	i	-0.9	-1.1	0.2	0.69	x
59	COc1ccc(-c2csc(Nc3ccc(O)cc3)n2)cc1	0.4	i	5.8	1.6	0.5	0.67	x
60	CN(C)CCN(Cc1ccco1)S(=O)(=O)c1csc(C(N)=O)c1	-1.8	i	0.3	-1.5	1.8	0.69	x
61	COc1ccccc1NS(=O)(=O)c1ccc(Cl)cc1	-1.5	i	1.7	-28	1.1	0.66	7%
62	COCCn1c(Cc2cccn2C)nnc1SCC(=O)Nc1nccs1	0.1	i	3.4	2.4	5.9	0.67	-9%
63	COc1ccc([N+](=O)[O-])c(C=CC(=O)c2ccccn2)c1	4.1	i	x	4.8	x	x	4%
64	COC(=O)c1c(-c2ccc(OC)cc2)oc2ccc(-c3ccc(OC)nc3)cc12	-0.3	i	5.7	1.0	-87	0.69	x
65	CCC1NC(=O)c2cccnc2-n2c1nc1cc(F)ccc1c2=O (stereo unspecified)	-13	i	x	-1.8	x	x	-5%
66	COc1ccc(-c2c(S(=O)(=O)c3ccccc3)cnn2-c2ccccc2)cc1	-3.5	x	2.0	x	-0.3	0.74	0%
67	c1cc2nc(C34CC5CC(CC(C5)C3)C4)[nH]c2cn1	0.8	i	2.4	1.8	5.4	0.69	2%
68	CNc1ccccc1C(=O)OCC(=O)N1CCN(c2ccc(OC)cc2)CC1	-3.8	i	-3.2	4.9	x	x	x
69	COc1cc(OC)cc(OC(=O)C2CCN(C(=O)c3ccc(F)cc3)CC2)c1	-1.3	i	-1.6	-1.0	3.4	0.69	11%
70	COc1ccc2cc(-c3ccccc3)ncc2c1	-1.9	i	-2.4	0.2	-0.8	0.71	x
71	Cc1nn(-c2ccc(F)cc2)c(Cl)c1/C=C/C(=O)OCC(=O)Nc1c(F)c(F)c(F)c(F)c1F	-4.0	i	-1.1	-3.1	0.3	0.68	-10%

Screening data from PubChem.

Only part of the results is shown; rates above refer to the full screens.
